PKD1 kinase inh: inhibitors of human PKD1 kinase; Q15139; inhibition, %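 (about 10 µM by stock and volumes)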; PKD1 kinase fluorescence polarization assay; 200,000 tested, 0.056% active; AID 797;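 active means inhibition of 50% or more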;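 further: controls were vehicle for no effect and a reference inhibitor for full effect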
RGS16-Gao: regulators of human RGS16-Galphao interaction; 220,000 tested, 0.38% active; AID 1441; bead-based flow cytometry RGS16-Galphao binding, fluorescence; actives lie on both sides; binding response (% of control), % at 10 µM;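 active means below 25% or above 175%, edge rows of some plates excepted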;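 further: Galphao activated by GDP with aluminum fluoride before binding; 100% = wells without compound and 0% = beads without RGS; some results beyond the cut were filed as inactive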
Target sequence (O15492 whole entry, looked up): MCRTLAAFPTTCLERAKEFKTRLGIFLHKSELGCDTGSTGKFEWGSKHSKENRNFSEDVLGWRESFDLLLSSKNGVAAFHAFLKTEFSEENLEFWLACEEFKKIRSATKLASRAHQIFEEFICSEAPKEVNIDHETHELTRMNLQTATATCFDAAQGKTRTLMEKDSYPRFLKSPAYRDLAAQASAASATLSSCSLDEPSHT
Target sequence (P09471 whole entry, looked up): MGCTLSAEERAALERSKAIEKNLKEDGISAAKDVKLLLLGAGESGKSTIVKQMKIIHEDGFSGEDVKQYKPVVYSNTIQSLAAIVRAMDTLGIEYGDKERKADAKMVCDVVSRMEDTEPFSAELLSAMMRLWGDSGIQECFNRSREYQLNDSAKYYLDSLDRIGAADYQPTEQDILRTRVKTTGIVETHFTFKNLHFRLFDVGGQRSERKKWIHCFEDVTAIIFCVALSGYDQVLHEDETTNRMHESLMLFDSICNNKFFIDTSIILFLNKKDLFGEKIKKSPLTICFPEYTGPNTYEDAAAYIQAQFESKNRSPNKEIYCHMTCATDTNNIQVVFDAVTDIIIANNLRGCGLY
HSV augment: increases HSV replication in cells. HSV replication augmentation in cells, fold increase. maximum fold increase. 220,000 tested, 0.005% active. AID 1956;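 active means peak rise of 1.5-fold or more in the series; tested in PC3 cells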;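 further: first round at 10 µM; read as green reporter fluorescence; hits show the peak of a series up to 25 µM; 1 = signal of infected wells without compound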
GALR2 ag: activates the human galanin receptor 2; O43603; GALR2-expressing cells, agonist activation read-out; activation, %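 (tested at 5 µM)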; 140,000 tested, 0.48% active;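 active means above mean plus 3 SD of all compounds, about 5% in these data, not always enough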;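 further: 0% = vehicle buffer wells and 100% = reference agonist at full effect; tested in CHO reporter cells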
Target sequence (O43603 whole entry, looked up): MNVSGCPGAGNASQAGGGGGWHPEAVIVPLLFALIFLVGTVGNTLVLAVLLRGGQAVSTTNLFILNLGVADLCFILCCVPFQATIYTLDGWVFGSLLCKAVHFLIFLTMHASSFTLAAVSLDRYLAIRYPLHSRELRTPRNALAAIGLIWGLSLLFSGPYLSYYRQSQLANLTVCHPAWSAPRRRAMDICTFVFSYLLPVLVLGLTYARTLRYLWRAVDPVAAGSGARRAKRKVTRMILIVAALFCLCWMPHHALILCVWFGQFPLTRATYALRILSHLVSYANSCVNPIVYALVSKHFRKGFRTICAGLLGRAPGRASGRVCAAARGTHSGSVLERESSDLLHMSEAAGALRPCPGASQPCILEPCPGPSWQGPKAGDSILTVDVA
Insulin prom inh: TRM-6 insulin promoter activity inhibition | TRM-6 cells (human fetal islet line), insulin promoter-eGFP reporter, imaging; reporter expression induced with tamoxifen | inhibition, % at 2 µM | 130,000 tested, 0.9% active;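 active means inhibition above the mean plus 3 SD, with well images judged a real hit on visual review, cut at about 60% in these data, passing the limit was not always enough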
Insulin prom inh cell count: recorded beside Insulin prom inh, whose call it bears; normalized cell count, %; measured here: cell count, toxicity; reference of the scale not given here;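 cells exposed to compound for 48 h; stained nuclei by imaging scaled within each plate; lower means fewer cells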
HSV augment primary fold: second read-out of HSV augment, no call of its own (marks repeat the call); fold increase; compound at 10 µM; measured here: primary screen fold increase 10 uM; tested in PC3 cells;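 GFP signal in the first replicate; 1 = infected wells without compound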
Active calls of the source: *; i = inactive; nt = not tested or not shown.

Every second line gives: PKD1 kinase inh, RGS16-Gao, HSV augment, HSV augment primary fold, GALR2 ag, Insulin prom inh, Insulin prom inh cell count
> C1CCCC(N2CCNCC2)CC1
  -7.9, 107.9, i, 0.92, -1.5, 60.0, 95.3
> Cc1ccc(C(=O)NC2CC(C)(C)NC(C)(C)C2)c(C)c1
  -7.9, 102.2, i, 1.03, -0.9, -46.7, 135.6
> Cc1cc(NC(=O)CN2CCN(c3ncccn3)CC2)no1
  -3.4, 109.1, i, 1, -1.4, 35.5, 117.2
> Cc1cc(/C=c2/sc3nc4ccccc4n3c2=O)c(C)n1-c1ccccn1
  -8.2, 96.6, i, 1.02, 0.6, 41.4, 82.3
> CCn1cc(C(=O)Nc2ccc(-n3cnnn3)c(OC)c2)c(=O)c2ccc(C)nc21
  -14.2, 103.4, i, 0.76, -0.7, nt, nt
> CCOc1ccc(OCC)c(-c2c(=O)n(OCc3ccccc3C(=O)OC)c3ccccc3[n+]2[O-])c1
  7.2, 97.4, i, 0.93, -0.8, -70.0, 96.4
> O=C(CSc1ccc(-c2ccco2)nn1)NC1CCCCC1
  -10.0, 87.6, nt, nt, nt, -7.7, 111.3
> COc1cc(/C=N/Nc2ccc(C(=O)O)cc2)cc(OC)c1OC
  nt, 101.0, i, 0.89, nt, nt, nt
> O=C(CNC(=O)c1cc2ccccc2o1)NCc1cccs1
  1.0, 101.3, i, 0.99, -1.8, -23.1, 102.9
> C/C(=N/N1CCN(c2ccccn2)CC1)c1ccc([N+](=O)[O-])cc1
  -5.0, 105.2, i, 0.84, 0.0, 53.9, 45.9
> COc1ccc(CCNC(=O)CCCn2c(SCC#N)nc3ccccc3c2=O)cc1OC
  13.7, 101.3, i, 0.88, -0.3, nt, nt
> c1ccc(-c2ncc3c(ccc4ccccc43)n2)cc1
  -4.2, 108.3, i, 0.96, -1.3, -20.0, 88.4
> CCCCNC(=O)CSc1nc2ccccc2c(=O)n1CCNC(C)=O
  -18.9, 91.8, i, 0.91, -1.5, 46.7, 145.0
> CCN(CC)c1nc(-c2ccccc2)ncc1S(=O)(=O)c1ccc(C)cc1
  -1.1, 95.9, i, 0.99, nt, nt, nt
> O=C(Nc1ccc(F)cc1F)c1cccnc1
  7.4, 104.0, i, 0.69, -1.7, 38.7, 74.8
> O=C(CCCCCn1c(=S)[nH]c2ccccc2c1=O)N1CCOCC1
  -9.8, 37.8, i, 0.8, -1.6, -30.8, 44.8
> CCOc1cc(N2CCOCC2)c(OCC)cc1NC(=O)C(C)(C)C
  -6.2, 97.4, i, 0.92, nt, nt, nt
> COc1ccc2cc3cc(C(=O)NCCCN4CCOCC4)oc3nc2c1
  -3.0, 99.3, i, 0.86, 0.6, -6.2, 75.4
> O=C(O)CSc1cc(C(=O)c2cc(F)ccc2O)cn2c(=O)c3c(-c4ccccc4)csc3nc12
  nt, 101.2, i, 1.14, nt, nt, nt
> NC(=O)c1nc(N2CCOCC2)nc(N2CCOCC2)n1
  -9.1, 98.7, i, 0.98, -1.4, -6.7, 122.3
> O=C(Nc1ccc2ccccc2c1)c1cnccn1
  -0.6, 97.3, i, 0.95, -2.0, -22.9, 173.2
> COc1ccc(-c2cc(C(=O)NC(C)C)no2)cc1
  -6.5, 72.0, i, 0.97, -1.4, -3.5, 195.3
> COC(=O)C(NC(=O)c1ccccc1)=C1C=C(C)OC(C)=C1
  4.2, 67.5, i, 0.983, -1.7, 46.1, 119.9
> COc1ccc(/C=N/NC(=O)c2ccc(COCC(F)(F)C(F)F)cc2)cc1
  -5.2, 67.6, i, 0.88, -0.1, nt, nt
> c1cnc2c(OCc3cn4cccnc4n3)cccc2c1
  -3.9, 101.6, i, 0.98, -2.8, 37.5, 110.4
> O=C(c1ccco1)N(CCCN1CCOCC1)c1nc(-c2ccc(F)cc2)cs1
  1.9, 96.3, i, 0.88, 1.3, 0.0, 177.1
> CCc1ccccc1NC(=O)Nc1cccn(Cc2ccc(F)cc2)c1=O
  5.3, 109.9, i, 1.28, nt, nt, nt
> CC(C)CN1CCN(Cc2cccc3ncccc23)CC1CCO (centres undefined)
  -6.2, 110.9, i, 0.93, nt, nt, nt
> CCc1ccc(N(C)S(=O)(=O)c2ccc3[nH]cc(C(=O)NCCN4CCOCC4)c(=O)c3c2)cc1
  -2.4, 109.5, i, 0.8, -0.9, -15.1, 136.8
> Cc1cc(NN)nc(NS(=O)(=O)c2ccccc2)n1
  -1.8, 112.7, i, 0.9, nt, nt, nt

Next part.
structure	PKD1 kinase inh	RGS16-Gao	HSV augment	HSV augment primary fold	GALR2 ag	Insulin prom inh	Insulin prom inh cell count
CCOc1cc(CNCCc2c[nH]c3ccccc23)cc(Cl)c1OCC(N)=O	nt	100.2	i	0.94	nt	nt	nt
CCOC(=O)c1cc(C#N)c(NCc2ccccc2)nc1C	-0.5	99.6	i	0.97	-1.5	nt	nt
Fc1ccc(NC(=S)NNc2ncc(C(F)(F)F)cc2Cl)c(F)c1	8.7	96.3	i	0.87	nt	29.4	117.8
COc1ccccc1-n1cnc(N)c1C(=O)c1ccccc1	-6.1	100.6	i	0.897	0.0	14.3	181.5
COc1ccc2c(=O)c(N3C(=O)c4ccccc4C3=O)c(C)oc2c1	3.5	79.9	i	0.92	-2.6	nt	nt
COc1ccc(NC(=O)c2nc(-n3nc(C)cc3C)ccc2Cl)cc1Cl	-2.2	97.6	i	0.83	-0.5	-93.3	33.4
Cc1ccc(C)c(CSC2=NN3CCCC(=O)N=C3S2)c1	nt	82.9	i	0.68	nt	nt	nt
Cc1nn(CC(=O)Nc2ccc3c(c2)nc(CCN2CCCCC2)n3C)c(=O)c2ccccc12	-6.4	105.8	i	0.9	-3.3	-7.1	86.6
Cn1cc(Cl)c(C(=O)Nc2nc3ccc(Cl)cc3s2)n1	2.9	100.2	i	0.96	-0.5	-11.6	114.7
CCOc1ccc2c(c1)/C(=N/N1C(=O)c3ccccc3C1=O)C(=O)N2	-2.4	98.3	i	0.84	nt	57.1	105.6
CC(CCc1ccccc1)NCc1ccncc1 (centres undefined)	6.4	98.2	i	0.91	-3.6	30.3	106.2
Cc1ccc(N(CC(=O)NC2CCCC2)C(=O)c2c(C)noc2C)cc1C	-1.6	82.9	i	1.04	-0.5	34.3	92.5
O=C(N/C=C/c1ccco1)NCc1ccccc1	-1.0	109.5	i	1.21	nt	63.6	100.2
CCOC(=O)C1CCN(C(=O)c2ccc(CNS(=O)(=O)c3ccc(C)cc3)cc2)CC1	1.4	105.1	i	1.14	nt	nt	nt
Cn1c(SCC(=O)NC(C)(C)C)nnc1-c1cnccn1	-5.9	101.8	i	0.92	-4.0	11.4	69.3
Cc1cc(N2CCN(C)CC2)nc2ccc(NC(=S)NCCN3CCc4ccccc4C3)cc12	2.8	99.3	i	0.82	nt	nt	nt
COc1c(N2CCN(C(=S)NC3CC4CCC3C4)C(C)C2)c(F)cc2c(=O)c(C(=O)O)cn(C3CC3)c12 (centres undefined)	nt	99.9	i	0.92	nt	nt	nt
CNC(=S)N(CCc1c(C)[nH]c2ccc(OC)cc12)Cc1cccnc1	-4.9	103.5	i	0.69	nt	51.4	88.4
COc1ccc(CCN(C)c2ccc(S(=O)(=O)N3CCCC3)cn2)cc1OC	-4.5	98.6	i	1.06	nt	nt	nt
C=CCOc1ccc(C2N3CC4(CC)CN2CC(CC)(C3)C4=O)cc1 (centres undefined)	-5.4	101.1	i	0.95	-1.0	nt	nt
Oc1ccccc1C=Nc1ccccc1-c1nc2ccccc2[nH]1	2.2	101.8	i	0.84	-0.9	nt	nt
COCc1c(C#N)c(NCCc2ccccc2)nc(C)c1[N+](=O)[O-]	3.9	102.7	i	0.98	0.1	-60.0	91.2
O=C(OCC(=O)c1c[nH]c2ccccc12)c1cccc(O)c1	-4.0	41.5	i	0.82	1.3	-35.7	111.2
CCCN(CCC)Cc1c(C(=O)OCC)nnn1-c1nonc1N	11.4	103.7	i	0.9	-0.8	-35.0	191.2

Reformatted field by field: four of the compounds above.
> CNC(=S)N(CCc1c(C)[nH]c2ccc(OC)cc12)Cc1cccnc1
  PKD1 kinase inh: -4.9	RGS16-Gao: 103.5	HSV augment: i	HSV augment primary fold: 0.69	GALR2 ag: nt	Insulin prom inh: 51.4	Insulin prom inh cell count: 88.4

> C=CCOc1ccc(C2N3CC4(CC)CN2CC(CC)(C3)C4=O)cc1 (centres undefined)
  PKD1 kinase inh: -5.4	RGS16-Gao: 101.1	HSV augment: i	HSV augment primary fold: 0.95	GALR2 ag: -1.0	Insulin prom inh: nt	Insulin prom inh cell count: nt

> COc1ccc(CCN(C)c2ccc(S(=O)(=O)N3CCCC3)cn2)cc1OC
  PKD1 kinase inh: -4.5	RGS16-Gao: 98.6	HSV augment: i	HSV augment primary fold: 1.06	GALR2 ag: nt	Insulin prom inh: nt	Insulin prom inh cell count: nt

> CCCN(CCC)Cc1c(C(=O)OCC)nnn1-c1nonc1N
  PKD1 kinase inh: 11.4	RGS16-Gao: 103.7	HSV augment: i	HSV augment primary fold: 0.9	GALR2 ag: -0.8	Insulin prom inh: -35.0	Insulin prom inh cell count: 191.2

Continuation.
structure	PKD1 kinase inh	RGS16-Gao	HSV augment	HSV augment primary fold	GALR2 ag	Insulin prom inh	Insulin prom inh cell count
O=C(NCCc1ccc2c(c1)OCO2)C1CCN(S(=O)(=O)c2ccc(Cl)cc2)CC1	-5.2	99.6	i	1.01	-0.3	nt	nt
CCOC(=O)c1c2n(c3ccc(OC(C)=O)cc13)CCC2	6.3	91.3	i	1.02	-2.2	nt	nt
CCOc1ccc(-c2cn(CCC#N)cn2)cc1	-10.5	101.6	i	1.16	-0.9	nt	nt
Cc1ccc(-c2csc(NC(=O)CSc3nnc4c(n3)[nH]c3ccccc34)n2)cc1	-13.8	93.4	i	0.9	2.9	24.1	95.7
Cc1nn(CC2CC2)c(=O)n1-c1ccc(C(C)C)cc1	4.3	100.5	i	0.89	nt	nt	nt
C=CCn1c(C(C)NC(=O)CCC)nc2ccccc21 (centres undefined)	-3.7	103.3	i	0.9	-0.3	26.7	110.1
COc1cccc(CN(c2ccc3c(c2)CCC3)S(=O)(=O)c2ccc(-n3cnnn3)c(OC)c2)c1	-11.6	105.0	i	0.92	0.0	13.8	165.4

Another view of part of the listing above:
> Cc1nn(CC2CC2)c(=O)n1-c1ccc(C(C)C)cc1
  PKD1 kinase inh: 4.3	RGS16-Gao: 100.5	HSV augment: i	HSV augment primary fold: 0.89	GALR2 ag: nt	Insulin prom inh: nt	Insulin prom inh cell count: nt

> COc1cccc(CN(c2ccc3c(c2)CCC3)S(=O)(=O)c2ccc(-n3cnnn3)c(OC)c2)c1
  PKD1 kinase inh: -11.6	RGS16-Gao: 105.0	HSV augment: i	HSV augment primary fold: 0.92	GALR2 ag: 0.0	Insulin prom inh: 13.8	Insulin prom inh cell count: 165.4

> Cc1ccc(-c2csc(NC(=O)CSc3nnc4c(n3)[nH]c3ccccc34)n2)cc1
  PKD1 kinase inh: -13.8	RGS16-Gao: 93.4	HSV augment: i	HSV augment primary fold: 0.9	GALR2 ag: 2.9	Insulin prom inh: 24.1	Insulin prom inh cell count: 95.7

> C=CCn1c(C(C)NC(=O)CCC)nc2ccccc21 (centres undefined)
  PKD1 kinase inh: -3.7	RGS16-Gao: 103.3	HSV augment: i	HSV augment primary fold: 0.9	GALR2 ag: -0.3	Insulin prom inh: 26.7	Insulin prom inh cell count: 110.1

No enrichment for hits; overall some 1.3% were active at least once.
